# High-throughput results as filed in PubChem BioAssay.
# CtBP-E1A blk: qHTS Assay for Inhibitors of the CtBP/E1A Interaction. AlphaScreen GST-E1A/His-CtBP binding, 1536-well; stronger effect = lower value; control for the full effect not named in the record. activity change, % (concentration not given with the values). actives 0.49% (n = 340,000); in the data active means activity change below about -65%; inconclusive means about -30% to -65%; inactive means above about -30%; further: on the % scale 0 is the no-effect control and ±100 the full control effect
#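 In 5 uL wells, 23 nL compound meets equimolar GST-E1A and His-CtBP (5X stock 125 nM each) for 2 h, 37 °C. Beads (5X, 50 ug/mL) then 1 h, 37 °C, dark.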
# ClpP mod: qHTS Assay for Activators of ClpP. purified B. subtilis ClpP, FRET peptide cleavage, 20 min. Potency, µM (series often up to 57.5 µM), inactives show top-dose activity change, negative = active. actives 1.9% (n = 340,000); active = well fitted falling curve with a large enough effect; inconclusive = small, poorly fitted or top-dose-only effect; inactive = no such curve, though single readings can be large or run the other way; further: potency means the concentration at half of the fitted maximal effect; the source files actives as falling curves though it sought activators and does not explain the sign; nearly all actives have a fitted effect of over 65% in size; many hits overshoot -100%
# Target sequence (P80244 whole entry, looked up): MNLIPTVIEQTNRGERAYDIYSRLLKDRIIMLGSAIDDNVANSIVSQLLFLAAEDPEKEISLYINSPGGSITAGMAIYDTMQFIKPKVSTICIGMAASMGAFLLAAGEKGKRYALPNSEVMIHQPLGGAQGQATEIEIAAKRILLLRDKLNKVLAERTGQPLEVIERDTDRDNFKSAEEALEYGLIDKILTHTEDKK
#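 Purified B. subtilis ClpP, 10 microg/mL final in Tris/HCl pH8 with KCl, BSA, glycerol and Tween-20, cleaved an Abz/nitrotyrosine-quenched decapeptide. Fluorescence (ex 320, em 430) was read at 0 and 20 min at room temperature. Delta was normalized to 5.8 microM ADEP and DMSO/no-enzyme controls.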
# TRPV1 PAM: HTS Assay for Compounds that Act as Potentiators of the Vanilloid Receptor 1 | Transient receptor potential cation channel subfamily V member 1 (Homo sapiens), Q8NER1 | TRPV1-expressing cells, Fluo-8 calcium influx, capsaicin EC20 potentiation; host cell line not named in the record; control for the full effect not named in the record | potentiation, % at 8.33 µM | actives 0.02% (n = 320,000); active means potentiation above 80%; inconclusive means 30% to 80%; inactive means below 30%; further: 0% is about no effect
# Target sequence (Q8NER1 whole entry, looked up): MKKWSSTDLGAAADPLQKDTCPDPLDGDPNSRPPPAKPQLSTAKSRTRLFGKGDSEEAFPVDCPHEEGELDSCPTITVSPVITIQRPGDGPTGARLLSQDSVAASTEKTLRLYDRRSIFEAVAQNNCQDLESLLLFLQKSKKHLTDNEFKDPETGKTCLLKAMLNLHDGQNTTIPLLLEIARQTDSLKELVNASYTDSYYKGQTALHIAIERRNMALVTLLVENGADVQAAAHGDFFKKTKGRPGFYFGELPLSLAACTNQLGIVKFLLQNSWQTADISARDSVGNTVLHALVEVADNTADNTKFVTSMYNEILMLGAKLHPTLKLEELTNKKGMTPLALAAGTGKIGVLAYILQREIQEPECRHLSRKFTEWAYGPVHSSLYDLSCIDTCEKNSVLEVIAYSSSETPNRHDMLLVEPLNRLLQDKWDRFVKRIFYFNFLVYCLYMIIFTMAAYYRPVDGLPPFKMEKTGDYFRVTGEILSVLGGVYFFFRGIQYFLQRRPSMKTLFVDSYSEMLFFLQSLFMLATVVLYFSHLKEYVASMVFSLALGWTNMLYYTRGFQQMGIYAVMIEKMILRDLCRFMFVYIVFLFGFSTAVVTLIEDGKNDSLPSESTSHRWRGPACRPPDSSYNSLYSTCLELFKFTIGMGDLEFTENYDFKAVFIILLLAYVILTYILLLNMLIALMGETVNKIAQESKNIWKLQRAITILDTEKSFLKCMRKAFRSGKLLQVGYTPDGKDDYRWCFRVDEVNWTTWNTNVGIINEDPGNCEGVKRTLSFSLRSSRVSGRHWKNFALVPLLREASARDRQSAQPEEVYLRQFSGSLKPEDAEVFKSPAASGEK
#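 TRPV1-expressing cells were cultured overnight at 35.5C and loaded with Fluo-8 calcium dye for 40 to 90 min at room temperature. After a 10 s baseline, compound was added and calcium influx was read kinetically for 3 min (ex 480/em 520 nm).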
# gsp antagonist: qHTS for Antagonists of gsp, the Etiologic Mutation Responsible for Fibrous Dysplasia/McCune-Albright Syndrome: qHTS | gsp-mutant cells, cAMP HTRF, 30 min; control for the full effect not named in the record | Potency, µM (top dose mostly 76.9 µM), without a hit: at the highest dose activity change, negative = inhibition, hits mostly inhibitors | actives 0.4% (n = 340,000); active = falling curve of any shape with a large fitted effect; inconclusive = falling curve, mostly with a smaller effect; inactive = flat or rising curve; cell line not stated here;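 further: intracellular cAMP measured with PDE inhibitor Ro 20-1724 present during compound exposure; potency means the concentration at half of the fitted maximal effect; on the % scale 0 is the no-effect control and ±100 the full control effect; nearly all actives have a fitted effect of over 65% in size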
#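 HTRF cAMP measurement after 30 min RT detection following 30 min, 37C compound treatment alongside […] (added as 300 uM solution) in G418-selected cells seeded at 2000/well and grown 16–24 h.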
# Menin MLL FP FL: qHTS Assay for Inhibitors Targeting the Menin-MLL Interaction in MLL Related Leukemias: Competition With Fluorescein Labeled MLL-derived Peptide | FP activity change, % at 61.4 µM | 290,000 tested, under 10 active | Fluorescence polarization, fluorescein-MLL peptide displacement from menin | AID 1766, 2009; inconclusive = falling polarisation curve, or a change in total fluorescence; inactive = total fluorescence flat and polarisation flat or rising; no compound was filed as active; the % refers to the polarisation; negative = inhibition;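 further: % of control where 0% means no effect; inhibitors lower the polarisation; unlabelled MLL peptide was the positive control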
# gsp ag: qHTS for Agonist of gsp, the Etiologic Mutation Responsible for Fibrous Dysplasia/McCune-Albright Syndrome: qHTS. gsp mutant cells, cAMP HTRF, 30 min; control for the full effect not named in the record. Potency, µM (titrated, usually from 76.9 µM), for the others: at the top dose activation (cAMP increase), usual class: activators. actives 0.13% (n = 340,000); active = well fitted activation curve with a large enough effect; inconclusive = small, poorly fitted or top-dose-only effect, or another doubt; inactive = no such curve, though single readings can be large or run the other way; cell line not stated here;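 further: phosphodiesterase inhibitor Ro 20-1724 added with compounds to block cAMP breakdown; potency means the concentration at half of the fitted maximal effect; nearly all actives have a fitted effect of over 60% in size; about a fifth of the inactives were tested at one dose only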
#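 Cells stably selected in G418 were plated at 2000/well, grown 16-24 hr, then given compounds in DMSO with the PDE inhibitor […] (300 uM solution added) for 30 min at 37C; cAMP was read by HTRF.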
# Sfp inh: qHTS Assay for Inhibitors of Bacillus subtilis Sfp phosphopantetheinyl transferase (PPTase). AID 1490, 2009. Biochemical Sfp PPTase activity, qHTS. 4'-phosphopantetheinyl transferase ffp (Bacillus subtilis), Q9F4F7. Potency, µM, without a hit: max response, negative = inhibition, hits mostly inhibitors. actives 3.5% (n = 310,000); active means well fitted inhibition curve with a large enough effect; inconclusive means small, poorly fitted or top-dose-only effect, or another doubt; inactive means no such curve, though single readings can be large or run the other way;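 further: the enzyme is Sfp with the accession as filed and its product quenches rhodamine fluorescence; potency means the concentration at half of the fitted maximal effect; 0% = enzyme reaction without inhibitor and -100% = no enzyme wells; top concentration of the series not given in the record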
#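 With Hepes-Na pH 7.6 buffer containing 10 mM MgCl2, Sfp (15 nM) modified BHQ-2-YbbR (12.5 uM) using rhodamine-CoA (5 uM). Two reads 30 minutes apart at 525/598 nm yielded each well's rate.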
# The depositor's hits bear a star; ? = inconclusive; / = no result given; & = joins results of further samples; [ ] = dose if it differs, or a comment.
Structure | CtBP-E1A blk | ClpP mod | TRPV1 PAM | gsp antagonist | Menin MLL FP FL | gsp ag | Sfp inh
Cc1csc(NC(=O)c2cn3ccccc3n2)n1 | ? | / | -1 | -7% | -0.1 | -19%[15.4 µM] | -29%
COC(=O)c1cnn(-c2nc(-c3ccccc3)cs2)c1N | 2 | -2.3% | -4 | 1% | 1.0 | 23%[15.4 µM] | -5%
CC(C)N(C(=S)Nc1cc(S(=O)(=O)N2CCOCC2)ccc1Cl)c1ccccc1 | 15 | -2.0% | -5 | 7% | 1.2 | -6% | 4%
CCc1nnc(NC(=O)c2ccc3c(c2)C(=O)N(CC(C)C)C3=O)s1 | / | / | 11 | / | -0.6 | / | 12%
Cc1ccc(OCC(=O)NC(=S)Nc2cccc(NC(=O)c3ccccc3)c2)cc1 | 0 | -2.3% | 1 | 5% | 3.7 | -51%[inhibitor] | 0%
COc1cccc(CNc2ncn[nH]2)c1OCc1ccc(F)cc1 | 0 | -1.6% | -55 | -12% | -4.8 | 31%[15.4 µM] | 12%
Cc1nnc(SC(C)C(=O)NCC2CCCO2)s1 (configuration not stated) | 22 | 0.9% | 0 | 20% | / | -31%[inhibitor] | /
O=C(Nc1cccc(NC(=O)c2ccccc2[N+](=O)[O-])n1)c1ccccc1[N+](=O)[O-] | -5 | -2.8% | / | -3% | 1.9 | -13% | -3%
O=C1C(C=NCc2ccco2)=C(O)c2ccccc21 | -5 | -1.2% | -2 | -8% | 4.8 | 0% | 2%
CCn1c(SCC(=O)Nc2ccccc2)nnc1C1CCCCC1 | 2 | -0.5% | 11 | 1% | 2.1 | -13% | -9%
CCn1c(-c2sc(-c3ccccc3)nc2C)n[nH]c1=S | 1 | / | -32 | -11% | -3.6 | 7%[15.4 µM] | -20%
O=C(CNC(=O)c1ccccc1F)OCC(=O)c1ccc(Cl)s1 | -4 | 1.6% | -4 | -14% | -3.2 | ? | 15%
CS(=O)(=O)c1cccc(C(=O)OCCCC(=O)c2ccccc2)c1 | / | -1.0% | / | -12% | / | -27% | /
O=C(CSc1nnnn1C1CCCCC1)N1CCc2ccccc21 | 9 | 0.2% | -2 | 1% | 0.3 | 13% | 13%
CC(=O)c1ccc(N2CCN(C(=O)c3nn(C)c4c3CS(=O)(=O)c3ccccc3-4)CC2)cc1 | 1 | -10% | -3 | ? | 0.1 | -21% | 8%
CN1CCc2nc3sc(C(=O)NCc4ccccc4)c(N)c3cc2C1 | -13 | -10% | -6 | -25% | -2.9 | ? | -27%
CC1=CC(C)C(COC(=O)CN2CCCCC2)C(C)C1 (configuration not stated) | 3 | -0.4% | / | 19% | -0.5 | 12%[15.4 µM] | 23%
COCCNC(=O)C(=O)Nc1cccc(Br)c1 | 1 | -0.6% | 12 | 0% | 3.4 | 8% | 23%
COc1ccc(NC(=O)c2ccc3ccccc3n2)cc1S(=O)(=O)Nc1ccccc1Cl | -5 | -3.2% | -1 | -17% | 4.2 | 4% | 0%
CCCc1cc(=O)[nH]c(SCC(=O)c2cc(C)n(CCC)c2C)n1 | 4 | -0.6% | 1 | 1% | -0.5 | -6% | 11%
CCCCn1c(=N)n(CCOc2ccc(C)cc2)c2ccccc21 | -7 | -9.3% | -4 | 5% | 3.4 | -1% | 0%
CC1CC(C)CN(c2oc(-c3ccco3)nc2C#N)C1 (configuration not stated) | 7 | 11% | ? | -10% | 0.2 | -2%[15.4 µM] | -6%
CCN(C(=O)COC(=O)CNC(=O)c1sc2ccccc2c1Cl)C1CCCCC1 | 3 | 0.5% | 7 | -22% | / | 26% | /
CC(C)CN1CCC(=O)N(CCOc2ccccc2)CC1 | 1 | 0.4%&0.0% | 6 | 7% | -4.9 | -68%[inhibitor] | -3%
Clc1ccsc1-c1csc(-c2cccnc2)n1 | 13 | -18% | -2 | 3% | 1.0 | 8% | -14%
CCN(CC)CCOc1nnc(-c2ccc(OC)cc2)c2ccccc12 | -7 | -5.2% | 7 | 5% | 3.2 | 7% | 20%
CCN(CC)C(=O)c1cc(-c2ccc3c(c2)OCO3)on1 | -2 | / | 0 | -13% | -5.9 | 20% | -6%
Oc1ccc(N=Cc2sc3ccccc3c2Cl)cc1 | -10 | -1.8% | 22 | -20% | 2.5 | 21% | ?
CCOCCCNC(=O)c1cc(C)nn1-c1ccccc1 | 2 | -1.4% | 4 | 7% | 0.6 | -9% | 19%
O=C(CCNS(=O)(=O)c1ccc(Cl)cc1)OCC(=O)N1CCN(C(=O)c2ccco2)CC1 | 5 | -4.4% | 15 | -3% | / | 11% | /
Cc1cnc(C(=O)OCC(=O)c2c(N)n(CC(C)C)c(=O)n(C)c2=O)cn1 | 0 | 0.8% | 16 | 3% | / | -1%[15.4 µM] | /
Cc1ccn2c(NC(C)(C)C)c(-c3cccs3)nc2c1 | 5 | / | -7 | -11% | -5.6 | 0%[15.4 µM] | 8%
Cc1ccc(NC(=O)CSc2nnc(-c3ccc(S(=O)(=O)N4CCCC4)cc3)o2)cc1C | 6 | 1.9% | 2 | 5% | 1.2 | -26% | -2%
C=C(C)Cn1c(SCC(=O)N/N=C/c2ccccc2OCC(=O)O)nnc1-c1ccc(Br)cc1 | / | -8.4% | -12 | 1% | 2.6 | 18% | -5%
CCOC(=O)Cc1csc(NC(=S)NC(=O)c2ccccc2Br)n1 | 0 | -3.7% | -1 | -5% | 0.8 | 9% | -94%
CN(Cc1ccco1)C(=O)Cn1ncc2c([nH]c3ccccc32)c1=O | / | -23% | 6 | -10% | -8.3 | -4% | 1%
CCc1cccc2c(/C=N/NC(=O)c3cccc(S(=O)(=O)Nc4ccccc4Cl)c3)c[nH]c12 | ? | -2.2% | 11 | ? | 5.7 | 25% | 10%
COC(=O)c1csc(S(=O)(=O)N2CCOCC2)c1OC | -1 | 0.7% | 0 | 9% | / | -13% | 4%
COC(=O)c1sccc1NC(=O)c1ccccc1F | 15 | / | ? | -10% | -1.2 | 10%[15.4 µM] | 6%
COc1ccc(C(=O)Nc2cc(C)nn2-c2cccc(F)c2)cc1 | 7 | / | 2 | 6% | 5.6 | 11% | 22%
COc1nc(NC(C)(C)C)nc(Oc2ccc(=O)n(C)n2)n1 | -3 | 1.5% | 12 | 11% | 0.1 | -11% | -14%
O=S(=O)(NCCSc1ccc(Cl)cc1)c1ccc2c(c1)OCCO2 | 3 | 0.8% | -16 | -13% | -2.1 | -2% | -5%
O=C(Nc1ccc(Cl)cc1C(=O)O)c1ccc2c(c1)C(=O)N(Cc1ccco1)C2=O | -6 | 0.2% | 12 | ? | 1.6 | -38% | -23%
CCCN1C(=O)C2C(C(=O)Nc3cccc(OC)c3)C3C=CC2(O3)C1C(=O)NC1CCCCC1 (configuration not stated) | 3 | -1.0% | 7 | 12% | 1.7 | -6% | 23%
O=C(c1cccs1)N1CCN(S(=O)(=O)N2CCCCC2)CC1 | 2 | 0.6% | -2 | -8% | 3.7 | 6% | -3%
O=S(=O)(c1ccc2c(c1)N(Cc1ccc(Cl)cc1)C1CCCN21)N1CCOCC1 (configuration not stated) | -6 | -4.9% | 2 | 6% | 0.5 | ? | 1%
CCN(CC)S(=O)(=O)c1ccc(N2CCCC2)c(C(=O)OCC(=O)N2CCCC2)c1 | 2 | 0.0% | -5 | -13% | -2.8 | 27%[15.4 µM] | 17%
COc1ccc(C(=O)OCC(=O)NCCCc2ccccc2)c(OC)c1 | -5 | -0.6% | 0 | 3% | 0.5 | -1% | 11%
O=C(O)C1(P(=O)(c2ccc(Cl)cc2)c2ccc(Cl)cc2)CC1 | 7 | / | -1 | 13% | -5.9 | -2% | 10%
Cc1ccc(OCCCC(=O)ON=C(N)c2ccccc2C)cc1 | / | 1.8% | -2 | 0% | / | -5% | /
COc1cc(-c2nc3c4ccccc4nc(=S)n3[nH]2)cc(OC)c1OC | 2 | / | -3 | -19% | 0.2 | -3% | -7%
Cc1nnsc1-c1nnc(SCC(=O)c2ccc(F)cc2)n1C1CC1 | 0 | -2.7% | -5 | -4% | 2.1 | 6%[15.4 µM] | 15%
CC(C)NC(=S)N/N=C1\CCCCC1C1CCCCC1 (configuration not stated) | ? | -2.1% | -14 | -1% | 5.4 | 2% | -22%
CC(C)(C)NC(=O)CN(C(=O)C(=O)Nc1ccc2c(c1)OCCO2)C1CCCC1 | -12 | / | 0 | / | -4.3 | -11%[15.4 µM] | 6%
COc1ccc(CN(C)C[C@@H]2OCc3cnnn3CCCC(=O)N([C@H](C)CO)C[C@H]2C)cc1 | 5 | -2.1% | / | / | / | ? | /
CCN(CC)C(=O)Cn1cc(C(=O)C(=O)Nc2ccc3c(c2)OCO3)c2ccccc21 | -5 | -1.2% | / | / | / | -63%[inhibitor] | /
CCc1ccc(/C=C2\SC(=S)N(CCCC(=O)N3CCN(C)CC3)C2=O)cc1 | -4 | 2.8% | / | / | / | 1% | /
CN(C(=S)NC(=O)CCCOc1ccc(Cl)cc1Cl)c1ccccc1 | 11 | 0.3% | 4 | -20% | -1.8 | -5% | 50µM*
COc1ccc(S(=O)(=O)N2CCN(C(=O)NC3CCCCC3)CC2)cc1OC | -3 | -1.4% | 22 | -9% | 4.2 | -24% | 4%
CC(C)C[C@H](NC(=O)N1CCCCCC1)C(=O)O | -8 | -1.3% | 0 | 7% | -1.7 | 6% | 13%

# Molecules from the list above with a tert-butyl group:
Structure | CtBP-E1A blk | ClpP mod | TRPV1 PAM | gsp antagonist | Menin MLL FP FL | gsp ag | Sfp inh
Cc1ccn2c(NC(C)(C)C)c(-c3cccs3)nc2c1 | 5 | / | -7 | -11% | -5.6 | 0%[15.4 µM] | 8%
COc1nc(NC(C)(C)C)nc(Oc2ccc(=O)n(C)n2)n1 | -3 | 1.5% | 12 | 11% | 0.1 | -11% | -14%
CC(C)(C)NC(=O)CN(C(=O)C(=O)Nc1ccc2c(c1)OCCO2)C1CCCC1 | -12 | / | 0 | / | -4.3 | -11%[15.4 µM] | 6%
